Source: PubChem BioAssay
Cruzain inh Det – qHTS Assay for Promiscuous and Specific Inhibitors of Cruzain (with detergent); Cruzipain (Trypanosoma cruzi), P25779; purified cruzain, Z-FR-AMC fluorescence, 0.01% Triton; Potency, µM, for inactives: max response, negative = inhibition, hits mostly inhibitors; actives 0.43% (n = 200,000); AID 1478, 2009; active means well fitted curve in the direction sought with a large enough effect; inconclusive means small, poorly fitted or top-dose-only effect, or another doubt; inactive means no such curve, though single readings can be large; an effect the other way counts as inactive or inconclusive;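 further: plate controls were neutral wells for no effect and buffer without enzyme for full effect; nearly all actives have a fitted effect of over 40% in size; top concentration of the series not given in the record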
Target sequence (P25779 123-467 limits assumed): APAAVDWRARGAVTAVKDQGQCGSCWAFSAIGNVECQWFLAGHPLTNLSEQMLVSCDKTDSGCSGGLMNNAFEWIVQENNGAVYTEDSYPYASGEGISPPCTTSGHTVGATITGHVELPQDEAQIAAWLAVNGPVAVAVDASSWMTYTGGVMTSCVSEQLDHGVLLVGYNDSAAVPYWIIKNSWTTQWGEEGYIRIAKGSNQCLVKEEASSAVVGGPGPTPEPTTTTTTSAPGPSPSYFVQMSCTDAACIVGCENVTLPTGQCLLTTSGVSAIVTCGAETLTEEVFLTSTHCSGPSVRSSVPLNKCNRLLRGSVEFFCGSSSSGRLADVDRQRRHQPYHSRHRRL
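Detergent-containing arm of a paired screen for aggregation-based inhibition: 0.01% Triton X-100 present. Cruzain at 1.5 nM cleaved 2 uM Z-FR-AMC at pH 5.5 with 5 mM DTT; AMC fluorescence gain over 60 s measured activity.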
Cruzain noTriton – qHTS Assay for Promiscuous and Specific Inhibitors of Cruzain (without detergent); Cruzipain (Trypanosoma cruzi), P25779; purified cruzain, Z-FR-AMC fluorescence, no detergent; Potency, µM, inactives show max response, negative = inhibition, hits mostly inhibitors; actives 2.3% (n = 200,000); active means well fitted curve in the direction sought with a large enough effect; inconclusive means small, poorly fitted or top-dose-only effect, or another doubt; inactive means no such curve, though single readings can be large; an effect the other way counts as inactive or inconclusive;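 further: plate controls were enzyme without inhibitor for no effect and buffer without enzyme for full effect; nearly all actives have a fitted effect of over 40% in size; top concentration of the series not given in the record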
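Detergent-free condition (0.00005% Triton X-100) in acetate buffer pH 5.5 with DTT. 1.5 nM enzyme and compound were pre-mixed 15 min, then 2 uM Z-FR-AMC substrate added; reaction progress from fluorescence change between first and third reads (60 s).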
RE007 growth inh – qHTS Assay for Inhibitors of the HIV-1 protein Vpr. actives 0.21% (n = 360,000). S. pombe RE007 Vpr strain, BacTiter-Glo ATP luminescence, 24 h; control for the full effect not named in the record. AID 651644, 2012. Potency, µM (titrated, usually from 92.2 µM), for the others: at the highest dose activity change, negative = less growth; active = well fitted falling curve with a large enough effect; inconclusive = small, poorly fitted or top-dose-only effect; inactive = no such curve, though single readings can be large or run the other way;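 further: on the % scale 0 is the no-effect control and ±100 the full control effect; nearly all actives have a fitted effect of over 50% in size; the assay follows cell death caused by Vpr and the record does not say whether a fall means rescue or toxicity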
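Fission yeast strain RE007, carrying one chromosomally integrated HIV-1 vpr copy, was seeded at OD 0.01 in PMG+AL medium with 23 nL pinned compound. After 24 h at 30 °C and 99% humidity, viability was read by BacTiter-Glo luminescence.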
Marburg entry inh – qHTS for inhibitors of binding or entry into cells for Marburg Virus; Marburg virus pseudotyped entry inhibition, cell reporter; control for the full effect not named in the record; about a third of the inactives were read at about 46 µM; Potency, µM (top dose mostly 37.8 µM), for inactives: at the highest dose activity change, negative = inhibition, hits mostly inhibitors; actives 1.8% (n = 300,000); AID 540276, 2011; active = well fitted inhibition curve with a large enough effect; inconclusive = small, poorly fitted or top-dose-only effect, or effect the other way; inactive = flat fitted curve, though single readings scatter; tested in HEK293 cells; about a fifth of its hits are not listed in these tables; further: on the % scale 0 is the no-effect control and ±100 the full control effect; luciferase read-out
NS1 inh – qHTS Assay for Inhibitors of Influenza NS1 Protein Function | actives 0.4% (n = 270,000) | AID 2326, 2010 | Potency, µM (top dose mostly 46.1 µM), for inactives: at the top dose activity, positive = more growth | S. cerevisiae slowed by influenza A NS1, growth recovery by OD600; further: actives are rising curves; nearly all actives have a fitted effect of over 50% in size
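Growth recovery, yeast-based: influenza A NS1 expressed in S. cerevisiae causes slow growth, and suppressors are detected by OD600. The parent strain without NS1 is used as positive control.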
SARS PLpro yeast – qHTS of Yeast-based Assay for SARS-CoV PLP; S. cerevisiae expressing SARS-CoV PLpro, growth rescue; control for the full effect not named in the record; Potency, µM (top dose mostly 32.9 µM), for inactives: at the top dose activity, positive = growth rescue; actives 0.19% (n = 330,000); further: 0% is about no effect; nearly all actives have a fitted effect of over 55% in size; growth read by luminescence after 48 h
2A StopGo – High Throughput Screening for Foot and Mouth Disease Virus Antivirals; actives 1.2% (n = 410,000); human cells with a luciferase reporter of 2A StopGo recoding; control for the full effect not named in the record; AID 1159524, 2015; Potency, µM (highest dose often 57.9 µM), inactives show at the highest dose signal change, negative = less light; active = well fitted falling curve with a large enough effect; inconclusive = small, poorly fitted or top-dose-only effect; inactive = no such curve, though single readings can be large or run the other way; tested in HEK293T cells; further: on the % scale 0 is the no-effect control and ±100 the full control effect; nearly all actives have a fitted effect of over 45% in size; luciferase light after 4 h
LASV entry inh – qHTS for Inhibitors of binding or entry into cells for Lassa Virus | Lassa virus pseudotype entry inhibition, cell reporter; control for the full effect not named in the record | Potency, µM (series often up to 37.9 µM), inactives show at the top dose activity change, negative = inhibition, hits mostly inhibitors | actives 1.2% (n = 300,000) | AID 540256, 2011; active means well fitted inhibition curve with a large enough effect; inconclusive means small, poorly fitted or top-dose-only effect, or effect the other way; inactive means flat fitted curve, though single readings scatter; tested in HEK293 cells; further: on the % scale 0 is the no-effect control and ±100 the full control effect; nearly all actives have a fitted effect of over 50% in size; luciferase read-out
Numbers without * were called inactive; ? = inconclusive; nt = not tested or not shown; [ ] = dose if it differs, or a comment. Unless noted, the call rests on the fitted dose curve; in most records, active means well fitted rising curve with a large enough effect; inconclusive means small, poorly fitted or top-dose-only effect; inactive means no such curve, though single readings can be large or run the other way. Potency means the concentration at half of the fitted maximal effect. This is a random part of the collection; 4.7% or so of the library scored in one or more.

SMILES | Cruzain inh Det | Cruzain noTriton | RE007 growth inh | Marburg entry inh | NS1 inh | SARS PLpro yeast | 2A StopGo | LASV entry inh
CCN(C(=O)COC(=O)c1cccn1C)C1CCS(=O)(=O)C1 (centres undefined) | nt | nt | -9% | ? | nt | -3% | 8% | -2%[46.1 µM]
O=C(NC(=S)N1CCCC1)c1cccc([N+](=O)[O-])c1 | nt | nt | -6% | nt | 7% | 6% | 6% | nt
Cc1nnc(-c2cnn(-c3ccccc3)c2N)n1Cc1ccncc1 | 4.5% | 5% | 11% | 4% | -7% | -5% | 0% | 24%
Nc1[nH]nc2nc(N3CCOCC3)nc(-c3ccccc3)c12 | 1.1% | 6% | 18% | ? | 14% | 8% | 0% | -12%
CC1C/C(=C/c2ccco2)C(=O)/C(=C/c2ccco2)C1 (centres undefined) | ? | 25% | nt | ? | -10% | -43% | nt | -4%
CC(C)(C)C(=O)NC(=S)Nc1ccc(C(F)(F)F)cc1 | nt | nt | -11% | nt | -1% | 8% | 54%[activator] | nt
CC(Oc1ccc(F)cc1)C(=O)N(Cc1ccccc1)c1c(N)n(Cc2ccccc2)c(=O)[nH]c1=O (centres undefined) | nt | nt | 5% | -25% | nt | 3% | -9% | ?
Cc1ccc(NC(=O)c2ccccc2)cc1 | 0.3% | 5% | -20% | ? | -13% | -8% | 30% | ?
Cc1ccc(-c2nc(Nc3cccc(C)c3)sc2CC(=O)O)cc1 | nt | nt | -8% | nt | 0% | -2% | 39%[activator] | nt
Cc1cccc(O)c1C | 7.4% | ? | -3% | nt | nt | 0% | -17% | nt
CC(=O)N1CCc2cc(Br)cc(S(=O)(=O)CCC(=O)NCc3ccc(F)cc3)c21 | -3.0% | -1% | nt | -2%[46.1 µM] | nt | nt | 4% | ?
COc1cc(C2C(C#N)=C(N)Oc3c2oc(CO)cc3=O)cc(OC)c1OC (centres undefined) | 2.2% | -17% | 10% | ? | -4% | 1% | 20% | ?
CCn1c(CSc2nc3ccccc3s2)nnc1SCC(=O)c1ccc(O)c(O)c1 | -8.8% | -21% | 7% | -27% | -16% | -3% | ? | ?
Brc1cccc(-c2nnco2)c1 | 2.4% | -20% | 17% | -13% | -1% | 1% | 34%[activator] | 12%
Cc1c(OC(C)C(=O)NC(Cc2c[nH]c3ccc(O)cc23)C(=O)O)ccc2c1oc(=O)c1ccccc12 (centres undefined) | nt | nt | 0% | nt | 17% | -5% | -21% | nt
N#Cc1cc([N+](=O)[O-])ccc1Oc1cccc(/C=N/NC(=O)c2ccc(Cl)cc2)c1 | 3.6% | 20µM* | -2% | -19% | 1% | 2% | ? | ?
CCCc1[nH]nc2c1C(c1cc(OC)ccc1F)C(C#N)=C(N)O2 (centres undefined) | -6.4% | 3% | -3% | 0% | -4% | 7% | -7% | 2%
COC(=O)c1c(-c2ccccc2Cl)noc1-c1cnc(N)nc1C(F)(F)F | nt | nt | 3% | -9%[46.1 µM] | 6% | 1% | -2% | 14%
Cc1cccc(NC(=O)/C(C#N)=C/c2ccccc2Cl)n1 | nt | nt | -15% | nt | 6% | -1% | -6% | nt
COc1ccc(NC(=O)c2cc(=O)c3ccccc3o2)cn1 | -1.6% | -7% | 15% | ? | -9% | 2% | 17% | 13%
O=C(OCc1cncs1)c1ccccc1 | nt | nt | 13% | 4%[46.1 µM] | 3% | 0% | -5% | -1%[46.1 µM]
CCCN(C(=O)c1ccc(N(C)S(=O)(=O)c2ccc(C)cc2)cc1)C1CCS(=O)(=O)C1 (centres undefined) | nt | nt | -22% | 1% | nt | -1% | -22% | 18%
O=C1N/C(=N/S(=O)(=O)Cc2ccccc2)S/C1=C/c1ccc2c(c1)OCO2 | nt | nt | 1% | nt | -2% | 3% | 66%[activator] | nt
Cc1ccc(C(=O)Nc2ccc(C(=O)N/N=C/c3c[nH]c4ccccc34)cc2)cc1 | -4.8% | -4% | -7% | -2% | -17% | -17% | -7% | -23%

Compounds listed so far with two or more sulfur atoms (3):
SMILES | Cruzain inh Det | Cruzain noTriton | RE007 growth inh | Marburg entry inh | NS1 inh | SARS PLpro yeast | 2A StopGo | LASV entry inh
CCn1c(CSc2nc3ccccc3s2)nnc1SCC(=O)c1ccc(O)c(O)c1 | -8.8% | -21% | 7% | -27% | -16% | -3% | ? | ?
CCCN(C(=O)c1ccc(N(C)S(=O)(=O)c2ccc(C)cc2)cc1)C1CCS(=O)(=O)C1 (centres undefined) | nt | nt | -22% | 1% | nt | -1% | -22% | 18%
O=C1N/C(=N/S(=O)(=O)Cc2ccccc2)S/C1=C/c1ccc2c(c1)OCO2 | nt | nt | 1% | nt | -2% | 3% | 66%[activator] | nt

Complete entries, quoted from the list. Values in the order: Cruzain inh Det | Cruzain noTriton | RE007 growth inh | Marburg entry inh | NS1 inh | SARS PLpro yeast | 2A StopGo | LASV entry inh
N#Cc1cc([N+](=O)[O-])ccc1Oc1cccc(/C=N/NC(=O)c2ccc(Cl)cc2)c1 is listed with 3.6% | 20µM* | -2% | -19% | 1% | 2% | ? | ?
Brc1cccc(-c2nnco2)c1 is listed with 2.4% | -20% | 17% | -13% | -1% | 1% | 34%[activator] | 12%

Next entries follow.
SMILES | Cruzain inh Det | Cruzain noTriton | RE007 growth inh | Marburg entry inh | NS1 inh | SARS PLpro yeast | 2A StopGo | LASV entry inh
O=S(=O)(Cc1ccccc1Cl)NCCOc1ccccc1 | -6.4% | -13% | 4% | 20% | -5% | -6% | 10% | 11%
COc1ccccc1C(=O)Nc1ccccc1C(=O)N1C(C)CCCC1C (centres undefined) | nt | nt | 15% | ? | nt | -1% | -9% | 17%[46.1 µM]
CCC(C)[C@H](NC(=O)C1(c2ccccc2)CCN(C(=O)OC(C)(C)C)CC1)C(=O)N[C@@H](C(=O)O)c1ccccc1 (some centres undefined) | nt | nt | 10% | nt | ? | 10% | -14% | nt
Cc1cc(NC(=O)NCc2ccc3c(c2)CCN3C(=O)c2ccccc2)ccc1Br | -0.3% | -4% | nt | nt | nt | nt | -19% | 11%[46.1 µM]
CCc1cc(=O)oc2cc3occ(-c4ccc(OC)c(F)c4)c3cc12 | -7.4% | 3% | -13% | ? | -3% | -4% | ? | 5µM*
CC1=C(C(=O)OCC2CCCCC2)C(c2ccccc2F)CC(=O)N1 (centres undefined) | -3.4% | 5% | nt | -23%[46.1 µM] | nt | nt | -18% | -23%[46.1 µM]
COc1ccccc1NCC(=O)N/N=C/c1c(O)ccc2ccccc12 | nt | nt | 4% | nt | 1% | 0% | -6% | nt
CCOc1cc(N2CCOCC2)c(OCC)cc1NC(=O)c1ccc(=O)n(Cc2ccccc2)n1 | -2.2% | ? | nt | 3% | -7% | 2% | nt | nt
CC(=O)c1cc(-c2ccccc2)n(CCC(=O)NC2CCCC2)c1C | nt | nt | 1% | ? | nt | 3% | 10% | -1%
CCOC(=O)N1CCN(c2c(N3CCN(c4ccccc4OC)CC3)c(=O)c2=O)CC1 | -5.2% | -7% | 12% | 0% | -2% | -4% | -6% | nt
O=C(c1ccco1)N1CCN(C(=O)c2cc(-c3ccccc3)nc3ccccc23)CC1 | -2.4% | 17% | -29% | ? | -1% | -3% | 8% | ?
O=C1C2C3C=CC(C3)C2C(=O)N1/N=C/c1cc(Br)cc([N+](=O)[O-])c1O (centres undefined) | -13% | 0% | ? | 10% | -30% | -25% | -19% | 2%
CC(C)=CCC(C)(C)/C=N/NC(N)=O | nt | nt | 1% | -23% | -5% | 7% | -7% | ?
CC(C)CC(C(=O)Nc1ccc2c(c1)OCCO2)N1C(=O)c2ccccc2C1=O (centres undefined) | -8.4% | -7% | 4% | 19% | -2% | -7% | -23% | -4%
CCCCc1ccc(-n2c(Cc3cccs3)n[nH]c2=S)cc1 | nt | nt | 11% | 4%[46.1 µM] | 11% | -3% | ? | 3%
COC(=O)C1CCN(S(=O)(=O)c2ccc(Br)s2)CC1 | nt | nt | 31% | 16% | nt | -3% | -13% | -12%
CCN(c1ccc(C)cc1C)S(=O)(=O)c1nnc(NC(=O)c2ccc(F)cc2)s1 | -5.3% | 9% | nt | nt | nt | nt | ? | 3%[46.1 µM]
Clc1ccc2nnnc(-c3ccccc3)c2c1 | -0.2% | 7% | 26% | 6.5µM* | -24% | -39% | ? | 10µM*
CCOCCc1nnc(NC(=O)COC)s1 | 4.4% | 4% | -3% | 15% | 4% | -1% | nt | 4%
CCn1cc(S(=O)(=O)N2CCN(Cc3ccc(F)cc3)CC2)cn1 | nt | nt | -16% | 6%[46.1 µM] | 12% | 0% | -13% | 0%
Cc1sc2ncn(CC(=O)N3CCN(c4ccc(F)cc4)CC3)c(=O)c2c1S(=O)(=O)N1CCCCC1 | -2.9% | 12% | nt | -28%[46.1 µM] | nt | nt | -14% | 23%[46.1 µM]
COC(=O)c1ccc(-c2noc(CN3C[C@H]4CC[C@H]3C4)n2)cc1 | nt | nt | -7% | nt | 1% | -2% | 67%[activator] | nt
CCOc1ccc(OCCN2C(=O)NC3(CCCc4ccccc43)C2=O)cc1 (centres undefined) | -4.7% | 0% | 29% | -4%[46.1 µM] | -48% | -8% | -27% | -9%
COc1ccc(NC(=O)CN2CCN(Cc3ccccc3)CC2)cc1 | nt | nt | -11% | 13%[46.1 µM] | 16% | 1% | -26% | 1%[46.1 µM]
COc1cccc(C(C[N+](=O)[O-])c2c(C)[nH]n(-c3ccccc3)c2=O)c1 (centres undefined) | nt | nt | ? | -18%[46.1 µM] | -110% | -72% | -9% | -5%
CCCNC(=O)N1CCC(n2nccc2NC(=O)CCOc2ccccc2)CC1 | nt | nt | 33% | 3% | -4% | 4% | -13% | -4%
COC(=O)Cc1ccc(NC(=O)c2ccc3c(c2)C(=O)N(Cc2ccco2)C3=O)cc1 | nt | nt | -5% | 15% | 2% | ? | -23% | 10%
